# Compound activity (PubChem BioAssay)
# Vaccinia pol inh: blocks vaccinia virus processive DNA synthesis; in vitro processive DNA synthesis, absorbance read-out; active compounds read low; some inactives read as strong as hits; normalized absorbance, % (concentration not given with the values); 0.94% of 46,000 active; AID 493162;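 active means replicate mean up to 90% and picked by the depositor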;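 further: 100% = median of the test wells of a plate; 100 nL library stock went into each well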
# Numbers without * were called inactive. These rows are one share of the data; the hit share may differ from the screen's.
mol | Vaccinia pol inh
COc1ccccc1N(CC(O)CN1CCOCC1)S(=O)(=O)c1ccc(C)cc1 (stereo unspecified) | 99.7
COc1cc(C(=O)Nc2c(C(=O)c3ccccc3)oc3ccccc23)cc(OC)c1OC | 97.0
S=c1sc2c(N3CCN(C/C=C/c4ccccc4)CC3)ncnc2n1-c1ccccc1 | 100.2
CCOC(=O)CCC(=O)O[C@H]1[C@H](O[C@@H]2[C@@H](C)[C@H](O[C@H]3C[C@@](C)(OC)[C@@H](O)[C@H](C)O3)[C@@H](C)C(=O)O[C@H](CC)[C@@](C)(O)[C@H](O)[C@@H](C)C(=O)[C@H](C)C[C@@]2(C)O)O[C@H](C)C[C@@H]1N(C)C | 98.5
COC(=O)CSc1cccc2c1C(=O)CC2c1ccccc1 (stereo unspecified) | 86.5
O=C(O)CCSc1ccc(Cl)cc1 | 101.1
S=C(NCC1CC1)Nc1ccc2[nH]ccc2c1 | 92.2
N#CC1=C(SCC(=O)Nc2ccccc2)NC(=O)CC1c1cccs1 (stereo unspecified) | 101.3
Cc1cccc(C)c1Nc1nn2c(=O)c3ccccc3nc2s1 | 87.1
CSc1ccc(Sc2ccc(SC)cc2)cc1 | 99.7
COC(=O)c1c(NC(=O)c2c(-c3ccccc3Cl)noc2C)sc2c1CCCC2 | 100.2
CCCOc1ccc(/C=C/C(=O)O)cc1OCC | 101.9
CNC(=O)COc1ccc(NC(=O)CCn2nc(-c3ccc(Cl)cc3)c3ccccc3c2=O)cc1 | 100.3
NC(=O)C1CCN(c2nc(-c3cccc(Cl)c3)c3c(n2)-c2ccccc2OC3)CC1 | 97.2
CC(C)n1cc(-c2nc(C(=O)NN)cs2)c(=O)n(Cc2ccccc2)c1=O | 102.8
CCOC(=O)C(C)n1cnc2c(nnn2Cc2ccc(C)cc2)c1=O (stereo unspecified) | 91.0
O=C(CC1CCCCC1)Nc1ccncc1 | 107.5
Sc1sc(-c2ccccc2)cc1C=Nc1ccccc1 | 98.9
Cc1csc2sc(C(=O)Oc3ccc(Cl)cc3)c(C)c12 | 106.1
C=CCn1c(-c2cc(OC)c(OC)c(OC)c2)nc2ccccc21 | 100.7
COc1cc2c(cc1OC)C1=C(C#N)CN(c3ccc(C)c(C)c3)CN1CC2 | 99.9
CCC(C)N1C(=O)CCC1C(=O)O (stereo unspecified) | 93.5
Cc1ccc(N=Cc2ccc[nH]2)c(Br)c1 | 93.6
CC(C)C(=O)Nc1c(O)c2ccccc2[nH]c1=O | 97.4
Cc1sc(NC(=O)CN2CCOCC2)c(C#N)c1C | 95.0
Cc1ccc(N2CC(N)=C(n3cc[n+](C)c3)C2=O)cc1 | 103.5
COC(=O)c1[nH]n(-c2c(C)cccc2Cl)c(=O)c1N=O | 102.0
COC(=O)c1ccc(NS(=O)(=O)/C=C/c2ccccc2)cc1 | 93.1
CCOC(=O)N1CCN(C(=O)CN2C(=O)/C(=C\c3ccc(C)cc3)Sc3ccccc32)CC1 | 78.1
COC(=O)CC1C(=O)NCCN1C(=O)c1sc2ccccc2c1Cl (stereo unspecified) | 95.2
CC(C)(C)[C@H]1COC(CC2=N[C@@H](C(C)(C)C)CO2)=N1 | 97.7
CC1CCN(S(=O)(=O)c2ccc(N=C3C(=O)Nc4ccccc43)cc2)CC1 | 101.2
O=C(c1ccc(CNS(=O)(=O)c2ccccc2)cc1)N1CCN(c2ccccn2)CC1 | 102.9
O=C(CSc1ncn[nH]1)C1CC1 | 99.7
COc1cccc2sc(=NC(=O)Cc3cccc4ccccc34)n(C)c12 | 99.8
CC(=O)OC[C@H]1O[C@@H](NC(N)=O)[C@H](OC(C)=O)[C@@H](OC(C)=O)[C@@H]1OC(C)=O | 104.2
N=c1n(CCOc2ccccc2)c2ccccc2n1Cc1ccccc1 | 99.9
Cc1cccc(N2CCN(CCNC(=O)c3csc4c3CCCC4)CC2)c1C | 103.7
O=C(NC1CCCC1)c1ccccc1 | 100.1
CC(Oc1ccc(-c2ccccc2)c(F)c1)c1ccnc(N)n1 (stereo unspecified) | 96.2

# Shown field by field: 4 of the compounds above
canonical_smiles: O=C(c1ccc(CNS(=O)(=O)c2ccccc2)cc1)N1CCN(c2ccccn2)CC1
  Vaccinia pol inh: 102.9
canonical_smiles: O=C(CSc1ncn[nH]1)C1CC1
  Vaccinia pol inh: 99.7
canonical_smiles: COc1cccc2sc(=NC(=O)Cc3cccc4ccccc34)n(C)c12
  Vaccinia pol inh: 99.8
canonical_smiles: CC(=O)OC[C@H]1O[C@@H](NC(N)=O)[C@H](OC(C)=O)[C@@H](OC(C)=O)[C@@H]1OC(C)=O
  Vaccinia pol inh: 104.2

# Continued.
mol | Vaccinia pol inh
Nc1nn2cc(-c3ccccc3)nc2c2ccccc12 | 96.3
Cn1cc(C(=O)c2ccccc2)c2ccccc21 | 99.9
O=C(Nc1ccc2[nH]c3c(c2c1)CCCC3)c1ccco1 | 99.5
CCc1nc2nc(C)cc(=O)n2[nH]1 | 94.7
Cn1nc(C(=O)NC2CCCCC2)c2ccccc2c1=O | 110.3
COc1cc(/C=N/N)cc(OC)c1OC | 94.5
O=C(CNC(=S)N(Cc1ccccc1)Cc1cccs1)NC1CCCCC1 | 77.2*
OC(c1ccccc1)c1nnc(SCc2ccc(Br)cc2)n1-c1ccccc1 (stereo unspecified) | 97.0
CN1CCCC(OC(=O)C(C)(c2ccccc2)c2ccccc2)C1 (stereo unspecified) | 106.7
COC(=O)C1C(c2ccccc2)NC(c2ccccc2)C(C(=O)OC)S1(=O)=O (stereo unspecified) | 99.3
COC(=O)c1ccc2nc(NC(=O)CCOc3ccccc3)sc2c1 | 102.3
Nc1nc(C(=O)Nc2ccccc2)c(-c2ccccc2)s1 | 103.0
CCCN(CCC)C(=O)c1cc(OC)cc(OC)c1 | 102.0
CCOC(=O)C1CCCN(C(=O)c2ccc(/C=C3\Oc4ccccc4NC3=O)cc2)C1 (stereo unspecified) | 94.7
Cc1ccc(S(=O)(=O)N2CCc3ccccc3C2)cc1 | 97.4
CC(CBr)(NS(=O)(=O)c1ccccc1)c1ccccc1 (stereo unspecified) | 64.9*
Cc1cc2cc(CNS(=O)(=O)N(C)C)ccc2[nH]1 | 100.8
O=C(O)c1cccc(Cn2cc(Cl)cn2)c1 | 99.6
Cc1[nH]c2ccccc2c1C(c1ccccn1)N1CCC(C(N)=O)CC1 (stereo unspecified) | 91.2
CCOC(=O)c1sc(/S(C)=N/C(=O)Nc2ccccc2Cl)c2c1CCC=C2 (stereo unspecified) | 112.5
O=c1c2c(-c3cccs3)csc2[nH]c(=S)n1-c1ccccc1 | 100.4
O=C1CSc2ccc(C(=O)NC3CCCCCC3)cc2N1 | 106.3
CCCNC(=O)C(C)n1c2ccccc2c2cnn(C)c(=O)c21 (stereo unspecified) | 99.6
Cc1ccc(-c2csc(Nc3ccc(C(=O)O)cc3)n2)c(C)c1 | 84.0
CCCCn1c(C2CC(=O)N(c3ccccc3Cl)C2)nc2ccccc21 (stereo unspecified) | 88.5
Cc1cc2c(=O)[nH]c(Cc3ccccc3)nc2s1 | 93.0
COc1ccc(CCNc2ccc(C)cc2)cc1 | 100.1
FC(F)(F)c1nnc2n1N=C(c1ccc(Cl)cc1Cl)CS2 | 100.6
O=C1NC(=O)N(CCc2ccc(F)cc2)C(=O)/C1=C/c1cccc2ccccc12 | 100.1
O=C(Cn1c(-c2ccccn2)nc2ccccc21)NCCCn1ccnc1 | 99.0
CCc1ccc(NS(=O)(=O)c2ccc3c(c2)SC(C)C(=O)N3)cc1 (stereo unspecified) | 88.4
COc1ccc(C2(C(=O)Nc3ccc(C)cc3)CCCC2)cc1OC | 106.1
CN(Cc1ccccc1Cl)C(=O)c1cnccc1C(F)(F)F | 100.8
COC(=O)c1ccc(NC(=O)c2cccc(C(=O)Nc3ccc(C(=O)OC)cc3)c2)cc1 | 99.9
CCOC(=O)C1CCN(C(=O)CSC2CCCCC2)CC1 | 101.1
O=C(c1ccccc1F)N1CCC(Cc2ccccc2)CC1 | 96.8
Cc1cc(C(F)(F)F)nc(SCc2ccc(C(=O)O)o2)n1 | 98.1
O=C(OC1CSC1)c1cccs1 | 101.8
CC(C)Cn1c(CNC(=O)c2ccccc2)nc2ccccc21 | 100.6
CC(=O)Nc1ccc(-n2c(C)csc2=NC(=O)c2ccccc2)cc1 | 91.0
[C-]#[N+]c1cc(-c2ccncc2)c(C)[nH]c1=O | 100.2
CC1(C)CC2CC(C)(CN2C(=O)CSc2ncnc3ccccc23)C1 (stereo unspecified) | 82.6
N#C/C(=C/Nc1cccc(C(F)(F)F)c1)c1nc(-c2ccc3c(c2)OCO3)cs1 | 99.0
CC(NC(=O)c1cccc(C(=O)NC(C)c2ccccc2)c1)c1ccccc1 (stereo unspecified) | 100.2
CC(C)NC(=O)NC1CCCCNC1=O (stereo unspecified) | 104.5
C=C(C)C(=O)Oc1ccc(N2Cc3ccccc3C2=O)cc1 | 99.7
CCOC(=O)CS(=O)c1nc2c(c(C(F)(F)F)n1)CCc1ccccc1-2 (stereo unspecified) | 92.6
CCOC(=O)c1cc(C(=O)NC(C)c2ccccc2)c(C)[nH]c1=O (stereo unspecified) | 99.7
CCOC(=O)c1cc(-c2ccccc2)sc1NC(=O)CN1CCCCC1 | 106.2
O=C(Nc1ccccc1Cl)OC1CN2CCC1CC2 (stereo unspecified) | 75.6
CCc1ccc(CN(Cc2cn[nH]c2-c2ccc(OC)cc2)C(=O)NCc2ccc(C)cc2)cc1 | 99.9
Cc1ccc2c(c1)c1c(n2CC(O)CN2C(=O)CNC2=O)C(=O)CCC1 (stereo unspecified) | 100.5
COc1ccc2nc3oc(C(=O)NCCC4=CCCCC4)cc3cc2c1 | 103.6
O=C(c1ccccc1)c1nccc2ccccc12 | 103.4
COc1ccc(C2C3=C(CCCC3=O)Nc3ncnn32)cc1 (stereo unspecified) | 97.8
CSc1nnc(CNC(=O)Cc2ccccc2)n1-c1ccc(F)cc1 | 89.1
N#Cc1c(C(F)(F)F)cc(-c2ccc(Cl)cc2)nc1SCC(=O)O | 111.8
CCOc1cc(/C=C2\SC(=O)N(Cc3ccc(F)cc3)C2=O)ccc1O | 100.5
S=C1NC2(CCS1)Oc1ccccc1C1CC(c3ccccc3)=NN12 (stereo unspecified) | 99.4
CC(=O)Oc1ccc(-c2ccc(C(=O)Nc3ccccn3)cc2)cc1 | 102.5

# A second format for 4 compounds above.
> CCOC(=O)CS(=O)c1nc2c(c(C(F)(F)F)n1)CCc1ccccc1-2 (stereo unspecified)
  Vaccinia pol inh = 92.6

> O=C(c1ccccc1)c1nccc2ccccc12
  Vaccinia pol inh = 103.4

> CCOC(=O)c1cc(C(=O)NC(C)c2ccccc2)c(C)[nH]c1=O (stereo unspecified)
  Vaccinia pol inh = 99.7

> COc1ccc2nc3oc(C(=O)NCCC4=CCCCC4)cc3cc2c1
  Vaccinia pol inh = 103.6

# Carrying on.
mol | Vaccinia pol inh
O=c1cc(C(F)(F)F)nc(-c2ccccn2)[nH]1 | 108.5
COC(=O)C(Cc1ccccc1)NC(=O)C12CC3CC(CC(C3)C1)C2 (stereo unspecified) | 100.3
O=C(NCc1ccc2c(c1)OCO2)c1ccc2c(=O)n(Cc3ccccc3)c(=S)[nH]c2c1 | 100.8
CCN1CCN(C(c2cccs2)C(C)NC(=O)c2ccc3c(c2)OCO3)CC1 (stereo unspecified) | 97.4
CC(C)(C)SCCNc1nc(Oc2ccc(F)cc2)nc(Oc2ccc(F)cc2)n1 | 95.9
Cc1ccc2nc(SCC(=O)N3CC4(C)CC3CC(C)(C)C4)[nH]c2c1 (stereo unspecified) | 100.6
CCCN1C(=O)CC(c2ccccc2)Sc2ccccc21 (stereo unspecified) | 101.4
CC(C)c1nccn1C(=O)c1ccccc1C(=O)O | 101.7
CN(Cc1ccccc1)C(=O)CN(C)S(=O)(=O)c1ccc2[nH]c3c(c2c1)CCCC3 | 95.1
CCN1C(=O)c2cccc3c(Cl)cc(Cl)c1c23 | 80.1
Cc1[nH]c2ccccc2c1SCC(=O)Nc1ccccc1 | 100.6
COc1ncnc2sc3c(c12)CCC3 | 84.6
CCc1cc2c(=O)c(-c3cscn3)coc2cc1OC(C)=O | 90.6
C#C[C@]1(O)CCC2C3CCC4=C(CCC(=O)C4)C3CC[C@@]21C (stereo partly specified) | 100.5
CC(C)N(Cc1ccccc1)S(=O)(=O)c1ccc(CNC(=O)c2ccc(Cl)cc2)s1 | 111.2
Nc1nc(N2CCCC2)ncc1S(=O)(=O)c1ccc(C(F)(F)F)cn1 | 103.7
Cc1ccccc1NCCC(=O)O | 99.9
CCCCN1Cc2c(nc3cc(C(C)(C)C)[nH]n3c2=O)C1=O | 93.3
Cn1c(=O)c(Nc2ccccc2)c2c3c(cccc31)C(=O)c1ccccc1-2 | 100.5
Cc1cc(OCc2ccc(Br)cc2)nc(-c2ccccc2O)n1 | 100.4
O=C(CSc1ncccn1)NC1CC1 | 102.3
Cc1cc(C)cc(-n2c(SCC(=O)NCc3ccc(F)cc3)nc3c(c2=O)SCC3)c1 | 100.5
CC(C)c1ccc(N2C=Nc3ccc(C(C)C)cc3C2)cc1 | 96.0
O=C1CSC2=NC3=C(CCc4ccccc43)C(c3cccs3)N12 (stereo unspecified) | 107.6
O=C(Nc1ccccc1C(F)(F)F)c1ccc(Cn2cnnn2)cc1 | 99.7
CN1C(=O)/C(=C/c2cn(CC(=O)N3CCCC3)c3ccccc23)c2ccccc21 | 98.8
O=C(Cc1ccc(-n2cccc2)cc1)Nc1ccc(Cl)cc1 | 85.3
CCc1ccc2oc(-c3ccc(OC)cc3)cc(=NCC(=O)O)c2c1 | 95.5
CCc1ccc(C2C(C#N)=C(C)NC3=C2C(=O)CC(C)(C)C3)cc1 (stereo unspecified) | 99.0
CCN(CC)C(=O)c1ccc2c(c1)C1C3CCC(C3)C1C(c1ccccc1)N2 (stereo unspecified) | 99.1
CCOC(=O)C1C(=O)CC(C)(O)C(C(=O)OCC)C1c1ccc(C)cc1 (stereo unspecified) | 98.3
